# Mtb hypoxia inh: reduces hypoxia-regulated biosensor signal in M. tuberculosis; M. tuberculosis hypoxia-regulated fluorescent reporter, fluorescence; fluorescence inhibition, % (no concentration beside the values); 0.1% of 300,000 active; AID 1159583;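 active = 35 to 45% if threefold the growth effect, above 45% if 1.5-fold the growth effect; inactive = the rest, general growth blockers included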;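 also: wells of about 50 µL received 100 nL stock; 0% = vehicle wells and 100% = reference inhibitor wells; whole bacteria with a GFP reporter of the hypoxia response; strong numbers were not always called active; many hits fall short of the cut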
# PrP 5UTR inh: suppresses PrP 5' UTR mRNA reporter expression; cell-based PrP 5' UTR mRNA reporter, plate reader; inhibition, % (test concentration not listed); 0.35% of 340,000 active; AID 488862;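 active = every replicate at 50% or more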;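 also: 0 = median of the neutral control wells; tested in H4 reporter cells; numbers are from one replicate; inactives centre near -14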
# Sa ugtP lethal: compounds lethal to S. aureus RN4220 ugtP deletion mutant; OD600 growth, 16 h; some inactives read as strong as hits; growth inhibition, % (concentration not given with the values); 0.54% of 330,000 active;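 active = z-score under -3 and OD600 up to 0.15 on both plates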;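 also: plate controls were untreated wells for no effect and antibiotic for full effect; wells of about 80 µL received 100 nL stock; the first replicate is given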
# BJeLR lethal: BJeLR cell viability loss. BJeLR (HRASV12) viability, CellTiter-Glo ATP luminescence, 48 h; reference of the scale not given here. inhibition, % (test concentration not listed). 0.17% of 300,000 active;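 active = replicate mean above 50%; inconclusive = above 50% but judged a plate artefact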;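 also: 50 nL library stock added to about 25 µL; numbers are from one replicate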
# Sa RN4220 lethal: S. aureus RN4220 growth inhibition. OD600, 16 h. inhibition, % (concentration not given with the values). 0.33% of 330,000 active. AID 1259311;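 active = z-score of -3 or lower and OD600 up to 0.18 on both plates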;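 also: plate controls were untreated cells for no effect and reference antibiotic for full effect; stock transfer was 100 nL into about 80 µL; one replicate is shown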
# Autofluor counter: compound fluorescence in toxin protease inhibitor counterscreen; compound autofluorescence counterscreen, microsphere flow cytometry; active compounds read high; fluorescence intensity (no concentration beside the values); 3.1% of 360,000 active; AID 624483;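 active = at least 3 SD above the mean of all compounds, about 16000 in these data; inconclusive = too few beads counted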;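 also: 100 nL of 1 mM stock went into each well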
# Mtb hypoxia inh growth: also measured in Mtb hypoxia inh; calls as there; growth inhibition, %; measured here: M. tuberculosis growth (absorbance);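 0% = vehicle and 100% = reference antibiotic; read after six days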
# Starred values were filed as active, the others as inactive; ? = inconclusive; . = no result given. Rows were taken by chance, and some 4% of all compounds hit somewhere here.
smiles,Sa RN4220 lethal,Mtb hypoxia inh,Mtb hypoxia inh growth,PrP 5UTR inh,BJeLR lethal,Sa ugtP lethal,Autofluor counter
O=C(c1ccc(Cl)cc1)C1CCCN(Cc2cnn(-c3ccccc3)c2)C1 (stereo not given),42,-20,0,-14,10,2,4020
COc1ccc(-c2noc(CN(C(=O)c3cccs3)C(C)C)n2)cc1,-0.4,-1,12,15,-5,4,10541
CCCn1c(=N)c(S(=O)(=O)c2ccc(F)cc2)cc2c(=O)n3cccc(C)c3nc21,1.2,0,-6,16,5,0,3432
CC1=CC(=NOC(=O)/C=C/c2ccccc2)C(C)=CC1=O,-1.6,3,5,.,.,-1,.
COc1ccc(OC)c(CNC(=O)C2CCCN(S(=O)(=O)N3CCC(C)CC3)C2)c1 (stereo not given),-1.2,-6,-2,-4,-2,1,5727
Cc1cc(N2CCCC2=O)ccc1S(=O)(=O)NC1CCCCC1,3.0,5,-9,-14,3,2,3712
O=c1[nH]c(-c2cccnc2)nc2sc(-c3ccccc3)cc12,11,2,4,-63,7,6,4469
CC(=O)N=c1c(C#N)cc2c(=O)n3ccccc3nc2n1CCCOC(C)C,3.4,5,3,.,2,4,.
COc1ccc(CCNC(=O)CN(CCc2ccccc2)S(C)(=O)=O)cc1OC,3.3,11,-2,-12,7,2,4581
O=C(NCc1cc(C(F)(F)F)cc(C(F)(F)F)c1)C1CC(c2ccccc2F)=NO1 (stereo not given),7.9,2,4,-13,-3,9,3096
COc1ccc(C(=O)OCC(=O)NC(=O)NCc2ccccc2)cc1[N+](=O)[O-],2.2,5,-4,-21,.,4,5786
Cc1cccc(-c2n[nH]c(=S)n2Cc2ccccc2)c1,10.0,2,4,-4,6,-1,3630

# Reformatted: six of the compounds above.
# Under each structure: Sa RN4220 lethal | Mtb hypoxia inh | Mtb hypoxia inh growth | PrP 5UTR inh | BJeLR lethal | Sa ugtP lethal | Autofluor counter
> COc1ccc(OC)c(CNC(=O)C2CCCN(S(=O)(=O)N3CCC(C)CC3)C2)c1 (stereo not given)
  -1.2 | -6 | -2 | -4 | -2 | 1 | 5727
> Cc1cc(N2CCCC2=O)ccc1S(=O)(=O)NC1CCCCC1
  3.0 | 5 | -9 | -14 | 3 | 2 | 3712
> O=c1[nH]c(-c2cccnc2)nc2sc(-c3ccccc3)cc12
  11 | 2 | 4 | -63 | 7 | 6 | 4469
> CC(=O)N=c1c(C#N)cc2c(=O)n3ccccc3nc2n1CCCOC(C)C
  3.4 | 5 | 3 | . | 2 | 4 | .
> COc1ccc(CCNC(=O)CN(CCc2ccccc2)S(C)(=O)=O)cc1OC
  3.3 | 11 | -2 | -12 | 7 | 2 | 4581
> O=C(NCc1cc(C(F)(F)F)cc(C(F)(F)F)c1)C1CC(c2ccccc2F)=NO1 (stereo not given)
  7.9 | 2 | 4 | -13 | -3 | 9 | 3096

# New compounds follow
smiles,Sa RN4220 lethal,Mtb hypoxia inh,Mtb hypoxia inh growth,PrP 5UTR inh,BJeLR lethal,Sa ugtP lethal,Autofluor counter
COc1ccc(CC(=O)Nc2nc(-c3ccc(OC)c(OC)c3)cs2)cc1OC,-2.8,1,-9,-3,1,9,5650
O=C(NN=C/C(Br)=C/c1ccccc1)c1n[nH]c2c1CCC2,8.0,1,2,.,.,1,.
Cc1sc2nc(CSC(C)C(=O)NC3(C#N)CCCCC3)[nH]c(=O)c2c1C (stereo not given),1.1,-3,2,-11,.,3,5596
CC(=O)c1ccc(NC(=O)CCC(=O)OCC(F)(F)C(F)F)cc1,6.4,6,14,-23,-3,7,20248*
Cc1ccc2nc(-c3ccncc3)[nH]c2c1,5.5,-4,2,-16,-1,12,.
CC1(C)S[C@@H]2C(C(=O)OCc3ccccc3)NC(=O)N2C1C(=O)OCc1ccccc1 (stereo not given in full),.,.,.,-18,7,.,3616
CCSC(=O)CCCCCCCCCCCO,5.2,.,.,-1,-5,5,3620
COC(=O)c1[nH]c2cccc(OC)c2c1NC(=O)CN1CC2(C)CC1CC(C)(C)C2 (stereo not given),-12,7,7,-13,2,-10,2818
CC1OC(OCC2OC(Oc3cc(O)c4c(=O)cc(-c5ccc(O)c(O)c5)oc4c3)C(O)C(O)C2O)C(O)C(O)C1O (stereo not given),7.0,6,-1,.,.,3,.
CCOc1cc(S(=O)(=O)n2nc(C)cc2C)ccc1Br,5.2,9,6,-19,7,-22,4786
CCc1ccccc1N(CC(=O)NC1CCCCC1)C(=O)CNC(=O)c1ccco1,0.2,-4,5,-14,5,7,5604
CC(C)(C)NC(=O)c1ccc2c(c1)N(CC(=O)N1CCN(c3ccccc3F)CC1)C(=O)C(C)(C)O2,-0.2,8,14,-17,0,-6,10271

# Profiles, quoted from the list. Order of values: Sa RN4220 lethal | Mtb hypoxia inh | Mtb hypoxia inh growth | PrP 5UTR inh | BJeLR lethal | Sa ugtP lethal | Autofluor counter
# CCCn1c(=N)c(S(=O)(=O)c2ccc(F)cc2)cc2c(=O)n3cccc(C)c3nc21 across the screens: 1.2 | 0 | -6 | 16 | 5 | 0 | 3432
# Cc1ccc2nc(-c3ccncc3)[nH]c2c1 across the screens: 5.5 | -4 | 2 | -16 | -1 | 12 | .
# CC(C)(C)NC(=O)c1ccc2c(c1)N(CC(=O)N1CCN(c3ccccc3F)CC1)C(=O)C(C)(C)O2 across the screens: -0.2 | 8 | 14 | -17 | 0 | -6 | 10271
# Cc1sc2nc(CSC(C)C(=O)NC3(C#N)CCCCC3)[nH]c(=O)c2c1C (stereo not given) across the screens: 1.1 | -3 | 2 | -11 | . | 3 | 5596
# Cc1cc(N2CCCC2=O)ccc1S(=O)(=O)NC1CCCCC1 across the screens: 3.0 | 5 | -9 | -14 | 3 | 2 | 3712

# Going on with the list:
smiles,Sa RN4220 lethal,Mtb hypoxia inh,Mtb hypoxia inh growth,PrP 5UTR inh,BJeLR lethal,Sa ugtP lethal,Autofluor counter
Cc1ccccc1Cn1nc(C)c(NC(=O)C2c3ccccc3Oc3ccccc32)c1C,5.5,3,3,-18,-6,9,2595
COc1ccc(/C=C\C(=O)c2c(O)ccc3c(C)cc(=O)oc23)cc1,-7.1,.,.,-8,5,87*,2175
O=C(O)c1ccc(Cl)c(S(=O)(=O)Nc2ccc(S(=O)(=O)N3CCCC3)cc2)c1,-0.2,9,-4,-13,.,7,6065
C[C@]12CCC(=O)C=C1C=CC1C2CC[C@@]2(C)C1CC[C@@]21CCC(=O)O1 (stereo not given in full),5.5,1,5,2,.,10,3897
CN(CC(=O)Nc1ccccc1Cl)C(=O)c1cc2c(s1)CCCCC2,3.1,4,5,-10,.,6,.
Cc1ccnc(NS(=O)(=O)c2ccc(NS(=O)(=O)c3cccs3)cc2)n1,5.4,0,5,-21,-3,-10,9398
Cc1cc(C)nc(SCc2ccc(C(=O)NN=Cc3ccc(C(=O)O)cc3)cc2)n1,-0.3,7,7,.,.,3,.
CCN(CC)c1ccc(Nc2nc(-c3cccnc3)cs2)cc1,-0.1,14,5,-89,-8,15,3218
Cc1cc(CCC(=O)O)c(C)cc1CCC(=O)O,5.6,.,.,-21,15,8,3043
CCCCCOc1ccc(C(=O)OC(C)C(=O)NCc2ccco2)cc1 (stereo not given),4.7,12,-3,-15,5,-2,6415
CCN(CC)CCNC(=O)c1cc2cc3ccc(OC)cc3nc2o1,-4.6,1,-14,-25,3,3,3133
Cc1ccc(N/C(N)=N/c2nc(C(F)(F)F)cc(C(F)(F)F)n2)cc1,1.8,8,14,-17,3,3,3390
COCCC1CCCCN1C(=O)c1cccc(OC2CCN(C3CCCC3)CC2)c1 (stereo not given),9.3,9,20,-37,4,3,3933
N/C(=N\c1nc2ccccc2o1)NC(=O)c1ccc(Cl)cc1,-1.2,4,11,-34,6,0,2274
COc1ccc(Cl)cc1S(=O)(=O)N1CCC(C(=O)N2CCOCC2)CC1,-1.1,14,1,-1,-6,1,?
CC(=O)Nc1ccc(C(=O)CSc2nnc(Cc3ccccc3)o2)cc1,3.6,15,-4,-12,1,4,16257*
O=C(CN1CCCCC1)NC(=O)NC1CCCC1,4.2,3,-1,-40,5,3,4733
CCc1cc(-c2n[nH]c(=S)n2Cc2ccccc2)cs1,-2.3,3,-3,.,-8,-19,7899
CCOC(=O)C(=NNc1cccc(Cl)c1)Sc1nnc(-c2ccc(OC)cc2)n1C,11,14,3,.,.,10,.
O=C(CSc1nc2ccccc2[nH]1)c1ccco1,2.0,.,.,-56,-2,-5,3925
Cc1ccc(-c2c[nH]c(=S)n2-c2ccccc2F)cc1,-1.2,-3,13,-12,2,18,4108
CCn1nc(C)c(CN2CCC(n3nccc3NC(=O)c3ccc4c(c3)OCO4)CC2)c1C,0.4,-2,0,-2,-2,2,5818
Cc1cc(S(=O)(=O)NCCN(C)C)c(C)s1,3.5,14,7,-2,-1,-3,22830*
Cc1ccc(S(=O)(=O)Nc2ccccc2CNC2CCCCC2)cc1,3.0,-5,-9,-7,.,3,4026
Cc1cccc(NC(=O)Cn2cnc3ccccc3c2=O)c1C,3.2,10,12,-32,-4,2,2472
CCOc1nc(-c2ccc(OC)cc2)ccc1-c1noc(-c2cc(OC)c(OC)c(OC)c2)n1,19,-7,6,-2,14,9,20182*
CCN(c1ccc(OC)cc1)S(=O)(=O)c1nnc(NC(=O)c2ccco2)s1,5.3,12,7,-6,0,3,5112
CN(Cc1ccco1)S(=O)(=O)c1csc(C(N)=O)c1,1.4,9,9,6,4,6,5533
OCCn1c(CSc2nnc(-c3ccco3)n2-c2ccccc2)nc2ccc(Cl)cc21,-2.7,1,9,-12,1,-1,3607
COc1ccc(Nc2nc(Cl)nc(NCCO)n2)cc1,3.3,17,7,-8,-4,5,2619
O=C(OCC#CCSc1nnc(-c2ccccc2)o1)c1cc2ccccc2o1,15,.,.,-20,9,3,4344
CN1CCN(CCC(=O)Nc2ccc(C3CCCC3)cc2)CC1,10,13,9,-8,2,-4,4718
COc1ccc(OC)c(C=NNC(=O)CCc2n[nH]c(=O)[nH]c2=O)c1,8.7,4,3,.,.,2,.
Cc1ccccc1NC(=O)CC1S/C(=N/c2nccs2)N(C)C1=O (stereo not given),.,.,.,-14,4,.,4594
Cc1sc(C(=O)Nc2ccc3ccccc3c2)cc1CC(=O)O,4.8,6,-13,-31,4,3,4238
Cc1ccc(C)c(NC(=S)NCC(c2cccnc2)N2CCOCC2)c1 (stereo not given),2.8,5,2,-2,-4,4,2358
CNC(=O)Oc1ccc(-c2cn3cc(C)ccc3n2)cc1,3.2,4,6,57*,17,-7,2001
Cc1nc2cc(NC(=O)Nc3cccc4ccccc34)ccc2n1C,7.3,0,5,-85,10,0,2298

# Screening results from PubChem BioAssay.
